# Bioassay records as filed in PubChem BioAssay.
# Ba CapD inh: inhibitors of Bacillus anthracis CapD enzyme; purified CapD enzyme, fluorescence intensity read-out; hits give low values; some hits fall short of the stated cut; z-score (test concentration not listed); actives 0.23% (n = 140,000); AID 492967;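 active means z-score under -4 in either of two replicates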;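 further: stock transfer was 100 nL into about 40 µL; score is relative to mean and spread of the plate; one replicate is shown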
# AID504770: growth inhibitors of E. coli YBA685 in a screen for V. cholerae RctB (chromosome II replication) inhibitors; E. coli YBA685 rctB-dependent plasmid, OD600 growth, 3 h; hits give low values; z-score (concentration not given with the values); actives 0.27% (n = 130,000); AID 504770;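 active means z-score under -2 on both plates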;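 further: wells of about 30 µL received 100 nL stock; score is relative to mean and SD of the test wells; the first replicate is given; strong numbers were not always called active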
# The depositor's hits bear a star; i = inactive; nt = not tested or not shown; & = joins results of further samples. A portion of the library, so the mix of outcomes need not match the whole.
SMILES,Ba CapD inh,AID504770
CCOC(=O)c1c(CSc2ccccc2)n(Cc2ccccc2)c2cc(Br)c(O)c(CN(C)C)c12,-0.46,nt
COc1ccc(OC)c(-c2nc(NC(C)=O)c3c(=O)oc4ccccc4c3n2)c1,-0.15,1.35
ON(Cc1cccc(C(F)(F)F)c1)Cc1cccc(C(F)(F)F)c1,0.605,nt
CC(C)CC(NC(=O)C1CCCCC1)C(=O)N1CCC2(CC1)OCCO2 (centres undefined),0.45,1.6
CCOc1ccccc1C(=O)NCC(=O)Nc1ccc2c(c1)OCO2,nt,-0.35
O=C(Nc1ccc(Cl)cc1)C1OC2OC3(CCCCC3)OC2C2OC3(CCCCC3)OC12 (centres undefined),-0.17,nt
COc1cccc(C(C2=C(O)CC(C)(C)CC2=O)C2C(=O)CC(C)(C)CC2=O)c1O (centres undefined),-0.35,nt
Cc1nc2ccccc2c(=O)n1CC(C)C,nt,-0.45
O=C(O)c1cccc(N2C(=O)CCC2=O)c1,-0.14,0.55
Cc1ccc(NC(=O)/C(C#N)=C/N(C)C)cc1Cl,0.38,nt
O=C(NCCCc1ccccc1)Nc1c[nH]c2ccccc2c1=O,nt,-0.1
COc1ccccc1NC(=O)CN(Cc1ccco1)C(=O)c1ccc(Cl)nc1,nt,-0.55
CSc1nsc(SC)c1C(=O)O,-0.035,-0.35
CC1=C(C(=O)Nc2ccccc2C)C(c2ccco2)C(C#N)=C(SCC(=O)Nc2ccc(Cl)cc2)N1 (centres undefined),-0.44,nt
COc1cc2c(C#N)c(N3CCCCC3)nc(N)c2c(N)n1,nt,-0.05
O/N=C/c1ccc(C#Cc2ccccc2)cc1,3.09,nt
COCc1cc(C)nc2sc3c(=O)n(-c4ccccc4)nnc3c12,-0.25,0.3
O=C1C(=Cc2ccc(N3CCCC3)cc2)C(=O)c2ccccc21,0.005,-2.05
CCOc1ccc(C(=O)Nc2ccc3oc(-c4ccc(F)cc4)nc3c2)cc1[N+](=O)[O-],-0.415,nt
CCNc1c(N)c(=O)oc2ccccc12,-0.405,-0.6
CCOc1ccc2c(c1)C(=C1SC(C(=O)OC)=C(C(=O)OC)S1)C(=S)C(C)(C)N2C(=O)CC(C)C,-0.64,nt
c1ccc(N2CCN(c3ncccn3)CC2)cc1,-0.22,-0.5
CCCNC(=O)CCC(=O)N1CCC(c2nc(-c3cccs3)no2)CC1,-0.25,nt
CC1(C)Cc2c(c(-c3ccccc3)[nH]c(=O)c2C#N)CO1,nt,-0.2
O=C1c2ccccc2C(=O)N1Cc1ccc2c(c1)OCO2,0.09,-0.1
COC(=O)c1ccc(CO/N=C(\N)c2ccc(C(C)(C)C)cc2)o1,0.965,-1.05
COc1ccccc1NC(=O)c1cc(-c2ccc(C)o2)nc2ccccc12,nt,0.05
Nc1c(C(=O)NCc2ccccc2)nnn1CC(=O)Nc1ccccc1,-0.08,nt
CC(C)(C)c1ccc(-c2nnc(SCC(=O)c3ccccc3)o2)cc1,-0.64,1.05
CN1CCN(C(CNC(=O)NC(C)(C)C)c2ccc(F)cc2)CC1 (centres undefined),nt,0.3

# One compound at a time, from the list above.
# Entry for CC(C)CC(NC(=O)C1CCCCC1)C(=O)N1CCC2(CC1)OCCO2 (centres undefined) : Ba CapD inh = 0.45; AID504770 = 1.6
# Entry for CCOc1ccc2c(c1)C(=C1SC(C(=O)OC)=C(C(=O)OC)S1)C(=S)C(C)(C)N2C(=O)CC(C)C : Ba CapD inh = -0.64; AID504770 = nt

# Other results:
SMILES,Ba CapD inh,AID504770
FC(F)(F)c1cccc(OCc2noc(-c3ccsc3)n2)c1,0.055,0.7
Cc1nc(SCC(=O)c2cc3ccccc3oc2=O)c(C#N)c(C)c1C,-1.23,nt
COc1cccc(/C=N/Nc2ncccc2[N+](=O)[O-])c1OC,-1.99,nt
Cc1ccc(CNS(=O)(=O)c2cc(C(=O)Nc3ccc(Br)cc3)ccc2F)cc1,-0.795,nt
CCOc1cc(C2C(C(=O)N3CCCCC3)=C(C)NC3=C2C(=O)CCC3)cc(Br)c1OC (centres undefined),3.42,nt
Cc1cc(C(=O)CN2C(=O)c3ccccc3C2=O)ccc1Cl,-0.01,nt
CCOC(=O)c1c(C)n(-c2ccccc2)c2ccc(OC(=O)c3cccs3)cc12,0.22,nt
O=C(c1ccc(F)cc1)N1CCN(c2cc(=O)[nH]nc2-c2ccccc2)CC1,0.125,nt
O=C(c1cccn(Cc2ccc(C(F)(F)F)cc2)c1=O)N1CCOCC1,-0.21,nt
COc1cc(C#N)ccc1OCC(=O)N(C)CC(=O)Nc1ccc(F)cc1,nt,-0.1
N#CC1=C(SCC(=O)Nc2ccc(Br)cc2)NC(=O)CC1c1ccc(F)cc1 (centres undefined),0.33,nt
CC(C)(C)S(=O)(=O)c1ccc(S(=O)(=O)C(C)(C)C)cc1,0.025,0.05
CC1=NN(c2ccccc2)C2(SC(c3ccccc3)=NN2c2ccccc2)c2ccccc21 (centres undefined),0.23,nt
CC(C)N1C(=O)S/C(=C/c2ccc(Sc3nc4ccccc4[nH]3)o2)C1=O,35.7,2.1
CCc1ccc(OC(=O)c2cncc(Br)c2)cc1,-0.305,-0.3

# Next part; it opens with the 4 that closed the last part.
SMILES,Ba CapD inh,AID504770
CC(C)(C)S(=O)(=O)c1ccc(S(=O)(=O)C(C)(C)C)cc1,0.025,0.05
CC1=NN(c2ccccc2)C2(SC(c3ccccc3)=NN2c2ccccc2)c2ccccc21 (centres undefined),0.23,nt
CC(C)N1C(=O)S/C(=C/c2ccc(Sc3nc4ccccc4[nH]3)o2)C1=O,35.7,2.1
CCc1ccc(OC(=O)c2cncc(Br)c2)cc1,-0.305,-0.3
CCCc1nc2ccccc2c(NC(=O)CN(CC)CC)c1CC,nt,-0.55
COc1ccc(NC(=O)CCc2cc(OC)c(OC)c(OC)c2)cc1,-1.94,-0.4
CC1CC(C)CN(C(=O)Cn2ncc3ccc(Cl)cc32)C1 (centres undefined),0.385,0
Cc1cc(C(F)(F)F)nc(NCCc2ccccc2)n1,21.9,-0.4
O=C(Cn1ccc2ccccc2c1=O)NCC(=O)NC1CCCCCC1,0.525,-0.75
COCCN1C=C(C(=O)OC)C(c2cccs2)C(C(=O)OC)=C1,43,-0.8
Cc1cc(S(=O)(=O)c2ccc(C(=O)O)cc2[N+](=O)[O-])c(C)cc1Cl,0.965,nt
COCCN=C1SC(C(=O)Nc2cccc(C#N)c2)C(N)=C1C(=O)N1CCN(C)CC1 (centres undefined),nt,-0.25
O=c1c(C2SCCS2)coc2ccccc12,-0.955,-0.75
CCc1cc(=O)oc2c(C)c3occ(-c4ccc(Cl)cc4)c3cc12,9.71,0.7
CC1(C)CC(=O)C2=C(C1)c1c(ccc3ccccc13)NC2c1cn(Cc2ccccc2F)c2ccccc12 (centres undefined),5.55,nt
CCOC(=O)c1noc2c1COc1ccccc1-2,0.905,0.15
O=C1c2ccccc2C(=O)N1CCSc1ncnc2c1cnn2-c1ccccc1,nt,-0.5
CCCN1CCN(C(=O)c2cn(C)c(=O)c3cc(OC)c(OC)cc23)CC1,5.26,0.3
Cc1cc(C)[n+]2c(n1)sc1ccccc12,18.2,nt

# Given with each value named: part of the list above
O=c1c(C2SCCS2)coc2ccccc12
  Ba CapD inh = -0.955	AID504770 = -0.75

CCc1cc(=O)oc2c(C)c3occ(-c4ccc(Cl)cc4)c3cc12
  Ba CapD inh = 9.71	AID504770 = 0.7

# Next part:
SMILES,Ba CapD inh,AID504770
O=C(c1ccccc1)N1CCN(C2CCCCC2)CC1,nt,0.9
Cc1ccc(NC(=O)c2cc(S(=O)(=O)NC3CCCCC3)ccc2F)cc1C,-0.225,nt
CCCN(CCC)C(=O)c1c[nH]c2ccc(S(=O)(=O)N(CC)c3ccc(F)cc3)cc2c1=O,4.36,-0.25
Cc1ccc(C2=NN3C(C2)c2cc(Br)ccc2OC3c2cccs2)cc1 (centres undefined),-0.63,nt
Cc1ccc(C)c2[nH]c(=O)c(CCNC(=O)CC(C)(C)C)cc12,nt,-0.6
O=C(NC1(C(F)(F)F)Oc2ccc(Cl)cc2O1)N1CCCCC1 (centres undefined),-2.3,nt
Cc1cc(C)c2nc(SCC#N)cc(C)c2c1,nt,0.35
NC(=O)CC(=O)c1ccccc1,0.62,1.6
Cc1nc(SCc2ccc(C#N)cc2)c(C#N)c(-c2ccco2)c1C(=O)N(C)C,nt,0.65
O=C1/C(=C/c2cc(Br)ccc2OCc2ccccc2)Sc2ccccc21,-0.425,nt
COc1ccc(CN(Cc2nc3ccccc3c(=O)[nH]2)C(=O)NCc2ccccc2)cc1,nt,-3.55*
COc1ccc(C2C(C#N)=C(N)N(c3cccc([N+](=O)[O-])c3)C3=C2C(=O)CC(C)(C)C3)cc1OC (centres undefined),0.035,nt
COC(=O)/C(=C\N(C)C)S(=O)(=O)c1cc(C)c(Cl)cc1C,0.435,-0.2
O=C(OCc1nc2scc(-c3ccccc3)c2c(=O)[nH]1)c1cccc(-n2cnnn2)c1,nt,-0.7
Cc1cc(C)n(-c2ccc(SCC(=O)Nc3ccc(Cl)cc3)nn2)n1,0.705,2.25
O=C(CCN1C(=O)COc2ccccc21)Nc1ccc2c(c1)OCCCO2,nt,2.1
Cc1ccc(C(=O)Oc2cc(C)nn2Cc2ccccc2)cc1,0.045,-0.05
CCOc1cc(C2C(C#N)=C(N)Oc3n[nH]c(C)c32)ccc1OCc1ccc(Cl)cc1 (centres undefined),-0.115,nt
c1ccc(-c2noc(C34CC5CC(CC(C5)C3)C4)n2)cc1,0.26,0.8
Fc1ccc(C=Nc2ccc(I)cc2)cc1,-0.005,-0.7
O=C(c1ccccc1)c1ccncc1,0.44,-0.55
O=C(CCOc1ccccc1)N1CCN(c2nc3ccccc3s2)CC1,-0.99,1.95
O=C(COc1ccccc1F)Nc1nc(-c2cccs2)c(NC(=O)c2ccccc2)s1,-0.495,0.85
O=c1c2c3c(sc2nc2n1CCCCC2)/C(=N/O)CCC3,-0.29,1.6
COc1cc(C2N(Cc3ccccc3)CCN2Cc2ccccc2)c([N+](=O)[O-])cc1OC,-0.03,nt
CCN(CC)S(=O)(=O)c1ccc(C(=O)N2CCN(C3=NS(=O)(=O)c4ccccc43)CC2)cc1,-0.17,-0.5
Cc1ccc(C(=O)C(C)OC(=O)c2cccs2)cc1 (centres undefined),0.14,-1.85
Cc1c2cnn(CC(=O)NC3CCCc4ccccc43)c(=O)c2c(C)n1Cc1ccc(Cl)cc1 (centres undefined),1.48,0
CCn1c(-c2ccccc2)ccc1C(O)C(F)(F)F (centres undefined),0.155,1.2
Cc1ccc(SCc2ccc(C(=O)Nc3ccc(C)cc3O)cc2)cc1,-0.1,nt
Cc1nnc(SCc2cc(=O)oc3cc(O)ccc23)n1Cc1ccccc1,nt,1.2
CCN(CC)CCN1C2=C(C(=O)CC(C)(C)C2)C(c2cccc(F)c2)C2=C1CC(C)(C)CC2=O,5.37,1.6
COc1ccc(CCNC(=O)C(c2ccccc2)c2ccccc2)cc1OC,0.32,-0.6
O=C(CSc1nc2ccccc2c(=O)n1CCCO)c1ccc2c(c1)OCO2,nt,-0.75
Cc1sc2ncn(CC(=O)NCCC3=CCCCC3)c(=O)c2c1S(=O)(=O)N1CCCCC1,1.01,0.35
COC(=O)c1c(NC(=O)c2nc3ccccc3s2)sc2c1CCN(C(C)=O)C2,nt,2.35
COc1ccccc1C(=O)NCCN1CCCC1,nt,-0.7
Cn1nccc1NC(=O)Nc1ccccc1,-0.875,nt
COCc1cc(=O)[nH]c(SCC(=O)C(C)(C)C)n1,-0.285,-0.95
COC(=O)c1cc(S(=O)(=O)N2CC(C)CC(C)C2)c[nH]1 (centres undefined),-1.17,2.85
O=C(O)CN(CCCc1ccccc1)CC(=O)O,i,2.3
CCOc1ccc2c(c1)sc(N)[n+]2Cc1cc(C)cc2cccnc12,0.02,-0.35
CCc1ccc(NC(=O)CSc2nc3ccccc3c(=O)n2CCC(=O)N2CCN(c3ccccc3)CC2)cc1,-0.7,nt
N#CC1=C(N)C(C#N)(C#N)C(c2ccc[nH]2)C2CCCC=C12 (centres undefined),-0.305,nt
O=S(=O)(Cc1noc(-c2ccccc2)n1)c1ccc(F)cc1,0.08,nt
N#C/C(=C\N1CCCCC1)S(=O)(=O)c1ccc(Cl)cc1,0.12,0.6
COc1ccc2[nH]cc(CCNC(C)=O)c2c1,1.12&0.59&-0.345,0.65&0.6
N#Cc1c(N)n(CCNS(=O)(=O)c2ccccc2)c2nc3ccccc3nc12,nt,-0.55
O=C1CCCN1CCP(=O)(O)CN1CCCCC1,0.675,-0.35
N#CN=C(Oc1ccccc1)Oc1ccccc1,0.315,nt
CCOC(=O)C1=C(CSc2nc(C)cc(C)c2C#N)OC(N)=C(C#N)C1c1ccc(OC)c(Br)c1 (centres undefined),3.42,nt
CC(C)Nc1nc(Cl)nc(Nc2cccc(C(F)(F)F)c2)n1,-0.17,nt
Cc1ccc(C(O)CN)cn1 (centres undefined),0.42,0
COc1ccc(C2CCCCCN2C(=O)c2cccc(N3CCCC3=O)c2)cc1 (centres undefined),nt,-0.1
CCOC(=O)Cn1c(=O)c(-c2cc([N+](=O)[O-])ccc2NC)nc2cc3ccccc3cc21,-0.515,nt
COc1ccc(CC(=O)NCC2(c3ccc(OC)c(OC)c3)CCOCC2)cc1,-0.375,nt
Cc1cccc(NC(=O)CSc2nncc(=O)[nH]2)c1,nt,-0.15
O=C(Cn1ncc(Cl)c(Cl)c1=O)N1CCCC1c1ccc2c(c1)OCCCO2 (centres undefined),nt,0.05
Cc1c(C(=O)N2CCN(c3ccccc3)CC2)oc2c1C(=O)CCC2,-0.38,-0.4
